# Screening data as filed in PubChem.
# TRPV1 potentiator = HTS Assay for Compounds that Act as Potentiators of the Vanilloid Receptor 1; TRPV1-expressing cells, Fluo-8 calcium influx, capsaicin EC20 potentiation; host cell line not named in the record; control for the full effect not named in the record; AID 540277, 2011; 0.02% of 320,000 active; Transient receptor potential cation channel subfamily V member 1 (Homo sapiens), Q8NER1; potentiation, % at 8.33 µM; active means potentiation above 80%; inconclusive means 30% to 80%; inactive means below 30%; also: 0% is about no effect
#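 TRPV1-expressing cells were cultured overnight at 35.5C and loaded with Fluo-8 calcium dye for 40 to 90 min at room temperature. After a 10 s baseline, compound was added and calcium influx was read kinetically for 3 min (ex 480/em 520 nm).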
# TRPML1 agonist = qHTS for Agonists of the Human Mucolipin Transient Receptor Potential 1 (TRPML1). activation, % (no concentration beside the values). TRPML1-expressing cells, Ca2+ dye fluorescence, FDSS; host cell line not named in the record; reference of the full effect not given here. 0.12% of 410,000 active. Mucolipin-1 (Homo sapiens), Q9GZU1; in the data active = activation above about 50%; inconclusive = about 30% to 50%; inactive = below about 30%; also: 0% is about no effect; the text of the record puts the active cut at 80%
#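 In this qHTS format, compounds were pin-transferred onto Ca8-dye-loaded TRPML1-DL cells induced with Tet overnight, and intracellular Ca2+ fluorescence was recorded kinetically for 110 s after a 10 s baseline. A subsequent 4uM final 54-4 (EC80) addition followed by a second 110 s read served as the antagonist phase.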
# TRPML1 blocker = qHTS for Inhibitors of the Human Mucolipin Transient Receptor Potential 1 (TRPML1); Mucolipin-1 (Homo sapiens), Q9GZU1; TRPML1-inducible cells, Ca2+ dye fluorescence, FDSS; active compounds read low; inhibition of EC80 agonist-evoked calcium signal; activity change, negative = inhibition, % (concentration not given with the values); 0.02% of 390,000 active; in the data active means activity change below about -50%; inconclusive means about -30% to -50%; inactive means above about -30%;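 also: stimulus is agonist 54-4 at its EC80 concentration; % is scaled to controls: 0 for no effect and ±100 for the full control effect; the text of the record puts the active cut at -80%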
#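 TRPML1-DL cells, Tet-induced overnight (~16 h, 37 °C) at 1,500 cells/well, were loaded with Ca8 no-wash dye plus quencher for 45-90 min at room temperature. Compounds were pinned during FDSS kinetic reading; agonist 54-4 at EC80 (4 uM final) then added.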
# Six1-Eya2 inh = qHTS Assay for Inhibitors of the Six1/Eya2 Interaction; AlphaScreen GST-Six1/His-Eya2 binding, biochemical; active compounds read low; control for the full effect not named in the record; activity change, % (concentration not given with the values); 0.56% of 360,000 active; AID 651725, 2012; in the data active = activity change below about -65%; inconclusive = about -30% to -65%; inactive = above about -30%; also: % is scaled to controls: 0 for no effect and ±100 for the full control effect
# Target sequence (O00167 whole entry, looked up): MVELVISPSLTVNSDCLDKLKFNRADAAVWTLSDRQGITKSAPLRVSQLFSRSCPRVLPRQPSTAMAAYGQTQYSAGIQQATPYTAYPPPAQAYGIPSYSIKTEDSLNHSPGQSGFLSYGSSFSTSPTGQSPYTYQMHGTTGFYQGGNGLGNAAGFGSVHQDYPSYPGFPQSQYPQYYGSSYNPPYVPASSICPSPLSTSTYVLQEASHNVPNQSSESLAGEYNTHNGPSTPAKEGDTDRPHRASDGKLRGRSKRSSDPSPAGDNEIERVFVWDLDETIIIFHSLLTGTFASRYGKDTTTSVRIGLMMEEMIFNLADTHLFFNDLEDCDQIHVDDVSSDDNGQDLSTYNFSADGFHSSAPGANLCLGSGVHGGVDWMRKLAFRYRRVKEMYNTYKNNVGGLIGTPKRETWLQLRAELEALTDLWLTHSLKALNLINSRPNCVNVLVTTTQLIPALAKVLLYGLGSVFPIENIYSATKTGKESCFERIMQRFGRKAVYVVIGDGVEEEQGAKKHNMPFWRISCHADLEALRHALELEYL
# Target sequence (Q15475 whole entry, looked up): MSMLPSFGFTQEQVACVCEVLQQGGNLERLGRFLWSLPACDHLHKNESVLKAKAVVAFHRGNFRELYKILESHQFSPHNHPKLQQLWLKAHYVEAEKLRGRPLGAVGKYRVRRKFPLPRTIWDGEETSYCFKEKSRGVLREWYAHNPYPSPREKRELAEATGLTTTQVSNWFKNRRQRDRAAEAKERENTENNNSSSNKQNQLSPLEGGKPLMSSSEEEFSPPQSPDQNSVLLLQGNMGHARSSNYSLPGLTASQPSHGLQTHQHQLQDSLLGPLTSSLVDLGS
#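 GST-Six1 + His-Eya2 (5X stock: 250/500 nM); Tris pH 8.0, 300 mM NaCl, 0.05% BSA, 0.02% Tween 20; GSH donor/Ni acceptor beads; 1 h 37 °C dark; AlphaScreen readout.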
# CtBP-E1A inh = qHTS Assay for Inhibitors of the CtBP/E1A Interaction; activity change, % (no concentration beside the values); CtBP / adenovirus E1A interaction (AlphaScreen); 0.49% of 340,000 active; AlphaScreen GST-E1A/His-CtBP binding, 1536-well; active compounds read low; control for the full effect not named in the record; in the data active means activity change below about -65%; inconclusive means about -30% to -65%; inactive means above about -30%; also: % is scaled to controls: 0 for no effect and ±100 for the full control effect
#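 AlphaScreen with 125 nM GST-E1A and 125 nM His-CtBP (5X stocks) in Tris pH 8.0, 300 mM NaCl, BSA, Tween 20, TCEP. Compounds preincubated 2 h at 37 deg C, then glutathione donor/nickel acceptor beads added for 1 h at 37 deg C in dark.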
# D2 PAM = Beta-Arrestin HTS for Positive Allosteric Modulators of the Human D2 Dopamine Receptor: Potentiators; potentiation, % (concentration not given with the values); DiscoveRx D2 beta-arrestin cells, luminescence, 90 min; 100% = 57 uM dopamine signal; 0.23% of 360,000 active; AID 624464, 2012; D(2) dopamine receptor (Homo sapiens), P14416; active = potentiation of 50% or more; inconclusive = 30% to 50%; inactive = 30% or less;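 also: compound concentration not given in the record; tested on top of an EC20 dose of dopamine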
#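 PathHunter beta-arrestin assay in DiscoveRx D2 cells. Compounds were added with an EC20 of dopamine (50 nM final) for 90 min at 37 deg C. Luminescence was read 1 h after detection reagent, with 57 uM dopamine as the EC100 control.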
# * = called active by the depositor; ? = inconclusive; . = not tested or not shown.
compound,TRPV1 potentiator,TRPML1 agonist,TRPML1 blocker,Six1-Eya2 inh,CtBP-E1A inh,D2 PAM
Cc1c(/C=N/NC(=O)c2ccccc2O)c2ccccn2c1C(=O)c1ccc(F)cc1,29,2.6,-9,?,2,2
COc1ccc(CCNc2c(C)c(C)nc3ncnn23)cc1,7,-0.3,5,-5,-16,-1
COc1ccc(C(=O)N2CC3(CC(c4cccc([N+](=O)[O-])c4)=NO3)C[C@H]2C(=O)NCC(N)=O)cc1 (some centres not stated),8,0.1,10,5,.,1
Cc1ccc(NC(=O)C2=NNC(=O)CC2)cc1S(=O)(=O)Nc1ccc(SC(F)F)cc1,29,1.0,7,-9,-2,0
COC(=O)c1ccc(CNC(=O)COC(=O)C2CC3C=CC2C3)cc1 (configuration not stated),?,1.8,14,-1,2,-7
CSCCC(NC(=O)c1ccc(Cl)cc1)C(=O)OCC(C)=O (configuration not stated),17,-0.2,-14,-1,0,-6
Cc1cc([N+](=O)[O-])nn1CC(=O)N(C)C1CCCCC1,-1,0.6,-3,16,-2,-6
CN1CCN(/C=N/c2c(C#N)cnn2C)CC1,0,-0.6,-10,5,2,-6
COc1ccc(/C=C2/N=C(SCC(=O)Nc3cc(C)on3)N(c3ccccc3)C2=O)cc1,-2,1.7,-13,-15,-15,7
Cc1nc(CSc2ccc(Cl)cc2)cc(NCc2ccccc2)n1,2,0.7,3,-2,-4,-5
N#CC(c1ccccc1)(c1ncc(C(F)(F)F)cc1Cl)N1CCOCC1 (configuration not stated),.,0.7,2,0,-17,1
COC(=O)[C@]1(CC(C)C)N[C@H](c2ccc(-c3ccc(F)cc3)c(OC)c2)[C@@H]2C(=O)N(C)C(=O)[C@@H]21,?,-0.6,-6,-6,2,-44

# A few values from above:
# COC(=O)[C@]1(CC(C)C)N[C@H](c2ccc(-c3ccc(F)cc3)c(OC)c2)[C@@H]2C(=O)N(C)C(=O)[C@@H]21 in CtBP-E1A inh reads 2
# COc1ccc(CCNc2c(C)c(C)nc3ncnn23)cc1 in Six1-Eya2 inh reads -5

# (list continues)
compound,TRPV1 potentiator,TRPML1 agonist,TRPML1 blocker,Six1-Eya2 inh,CtBP-E1A inh,D2 PAM
O=C(CCN1C(=O)c2cccc3cccc(c23)C1=O)Nc1ccccc1,11,1.2,1,2,2,-2
CC(=Nc1ccc(O)cc1)c1sc2ccccc2c1O,-13,14,5,-18,-15,22
CC(C)CCNC(=O)c1ccc2c(SCC(=O)O)c3c(nc2c1)CCCC3,6,-0.3,-1,3,10,-8
COc1cc2c(cc1NC(=S)Nc1cccc3ccccc13)oc1ccccc12,10,-1.5,3,-28,-22,-7
Cc1cccc(C)c1NC(=O)CN(C)C(=O)c1ccc(N2C(=O)CCC2=O)cc1,6,-0.2,2,-3,9,-24
COc1ccccc1C(=O)OCC(=O)c1cccc([N+](=O)[O-])c1,3,1.5,13,-4,4,-18
CC(NC(=O)c1ccccc1)c1nc2ccccc2n1Cc1ccc(C#N)cc1 (configuration not stated),3,1.7,41,2,5,-14
COc1ccc(O)c(C(=O)c2cnn(C(=O)c3cccc(N(C)C)c3)c2)c1,.,0.2,-7,-7,1,-16
CC(C)Cn1c(N)c(C(=O)CSc2nnnn2C)c(=O)n(C)c1=O,8,0.4,-7,1,8,-6
Cc1cc2cc(CCNS(=O)(=O)c3ccc(F)cc3)c(=O)[nH]c2cc1C,-13,3.6,3,-13,-3,-10
O=C(NCC(c1ccco1)N1CCN(c2ccccc2)CC1)c1ccc2c(c1)OCO2 (configuration not stated),9,1.9,19,2,-6,-5
CC(CCc1ccccc1)NC(=O)C(=O)NCCO (configuration not stated),14,0.9,-18,5,4,4
O=C(CSc1nc(=O)n(CCCN2CCOCC2)c2c1CCCC2)Nc1cccc([N+](=O)[O-])c1,-3,2.3,31,-11,-17,-17
O=C(Nc1ccc(C(=O)O)cc1)/C(=C\C=C\c1ccccc1)NC(=O)c1ccccc1Cl,22,-0.2,14,-8,-3,15
O=[N+]([O-])c1cccc(-c2nnc(CNC3CC3)o2)c1,-7,2.1,-2,4,-14,4
Cc1ccc(S(=O)(=O)N2CCCCCC2)cc1C(=O)Nc1cccnc1,0,0.9,-28,-2,7,21
Cc1ccc(S(=O)(=O)NNc2nc3ccccc3nc2C(F)(F)F)cc1,-3,-0.9,0,-4,-10,?
Cc1ccc(-c2nnn(CC(=O)N(Cc3ccco3)C(C(=O)NC(C)(C)C)c3cccs3)n2)o1 (configuration not stated),13,0.4,-5,-7,2,-8
O=C(COC(=O)CCC1CCCC1)Nc1cccc(S(=O)(=O)N2CCOCC2)c1,21,-0.3,-3,12,0,-3
CC1CCCCC1NC(=O)COC(=O)c1ccc(S(=O)(=O)NCc2ccco2)cc1 (configuration not stated),28,1.6,16,-3,-1,-4
O=C(NC1CCCCC1)c1ccc2c(=O)n(CC3CCCO3)c(=O)[nH]c2c1 (configuration not stated),15,0.7,4,4,2,-8
COc1cccc2cc(C(=O)OCC(=O)NC3CCCC(C)C3C)c(=O)oc12 (configuration not stated),.,2.1,48,-9,-14,-6
COc1ccc(C2CC(=O)Nc3cc(OC)c(OC)cc32)cc1Br (configuration not stated),-5,0.0,-15,-9,-3,1
COc1cc(C(=O)N2CCc3ccccc32)c([N+](=O)[O-])cc1OC,18,-0.4,30,-1,3,-1

# Profiles, looked up by structure. Values in the order: TRPV1 potentiator | TRPML1 agonist | TRPML1 blocker | Six1-Eya2 inh | CtBP-E1A inh | D2 PAM
# `O=C(CSc1nc(=O)n(CCCN2CCOCC2)c2c1CCCC2)Nc1cccc([N+](=O)[O-])c1` reads -3 | 2.3 | 31 | -11 | -17 | -17
# `COc1ccc(C2CC(=O)Nc3cc(OC)c(OC)cc32)cc1Br` (configuration not stated) reads -5 | 0.0 | -15 | -9 | -3 | 1
# `CC1CCCCC1NC(=O)COC(=O)c1ccc(S(=O)(=O)NCc2ccco2)cc1` (configuration not stated) reads 28 | 1.6 | 16 | -3 | -1 | -4
# `Cc1ccc(S(=O)(=O)NNc2nc3ccccc3nc2C(F)(F)F)cc1` reads -3 | -0.9 | 0 | -4 | -10 | ?
# `O=C(NC1CCCCC1)c1ccc2c(=O)n(CC3CCCO3)c(=O)[nH]c2c1` (configuration not stated) reads 15 | 0.7 | 4 | 4 | 2 | -8

# (continued)
compound,TRPV1 potentiator,TRPML1 agonist,TRPML1 blocker,Six1-Eya2 inh,CtBP-E1A inh,D2 PAM
Nc1ccc(C(=O)c2cccs2)cc1[N+](=O)[O-],6,1.2,8,?,?,-15
CCCOc1ccc(C(=O)CCC(=O)OCC(=O)N2CCN(S(=O)(=O)c3ccc(C)cc3C)CC2)cc1,.,0.9,0,9,.,2
CC(C)C(=O)Nc1sc2c(c1C#N)CCCCC2,-18,1.1,-2,2,-1,15
CCNC(=O)C1(C)CCN(C(=O)c2cccc(C#N)c2)C1 (configuration not stated),.,0.6,17,1,7,-10
O=c1[nH]c(CN2CCN(C/C=C/c3ccccc3)CC2)nc2cc(Cl)ccc12,-5,-0.2,-4,-7,-8,-8
O=S(=O)(c1cccs1)N1CCc2ccccc21,-18,2.0,39,10,12,-11
COc1ccccc1NC(=O)Cn1c(=O)n(C)c(=O)c2sc3c(c21)COC(C)(C)C3,10,-1.2,10,-15,.,-9
COC(=O)c1ccccc1NC(=O)CCCCCn1nnc2ccccc2c1=O,-2,3.5,7,0,.,-8
O=C(CNC(=O)c1ccccc1F)OC1CCOC1=O (configuration not stated),.,1.5,19,1,-2,7
O=C(CCC(=O)Nc1ccc(F)cc1)N/N=C/c1cccnc1,4,0.6,10,4,0,0
O=c1[nH]cc(F)c(=O)n1C1OC(CO)C(O)C1O (configuration not stated),.,-0.5,.,0,3,.
COC(=O)N/N=C/c1ccc(-c2cc(Cl)ccc2Cl)o1,10,1.5,1,-5,9,-4
O=C(N[C@@H](Cc1c[nH]c2ccccc12)C(=O)O)OCC1c2ccccc2-c2ccccc21,2,-0.4,-12,-7,-9,-3
C=CCNc1ncnc2c1ncn2[C@H]1CN(Cc2ccccc2)C[C@@H](COC(C)=O)O1,.,0.1,.,12,-16,-5
COc1ccc(S(=O)(=O)Nc2ccc3oc4ncccc4c(=O)c3c2)cc1OC,6,0.2,4,1,-24,5
O=C(CN1CCN(C(=O)c2cc(C3CC3)nn2-c2ccccc2)CC1)Nc1ccc(F)cc1,.,1.1,-6,3,-19,-15
COc1ccccc1-c1csc(Nc2ccc(Oc3ccccc3)cc2)n1,.,0.0,.,-8,-3,-10
CCCNC(=O)C1CCN(c2cc(-c3ccccc3)nc3ncnn23)CC1,-2,-1.0,-5,-1,-2,-1
COc1ccc(-n2c(SCC#N)nnc2-c2ccc(NS(=O)(=O)c3ccc(C)cc3)cc2)cc1,6,3.5,12,-6,-16,12
Cc1cccc2nc(C(=O)Nc3cccc(C(=O)NC4CC4)c3)cn12,-9,-0.4,-9,-5,.,6
COC(=O)/C(=C/Nc1cccc2ccccc12)[N+](=O)[O-],8,0.1,13,-6,-15,-3
Cc1cnc(CN(C)C(=O)c2ccc3oc(Cc4ccc(Cl)cc4)nc3c2)[nH]1,2,-0.3,-7,-10,-10,-33
CS(=O)(=O)N1CCN(C2Cc3ccccc3C2)CC1,2,0.3,1,-1,5,-9
CCC(=O)N1Cc2cc(C(=O)NCC(F)(F)F)nc(-c3cccc(-c4cncnc4)c3)c2[C@H]1CCO,.,-0.3,.,-2,6,.
N#Cc1c(N)n(CCOC(=O)c2cccc([N+](=O)[O-])c2)c2nc3ccccc3nc12,8,-0.6,7,?,?,7
CCOC(=O)/C(=C\c1ccc(OC(F)F)cc1)C1=Nn2c(nnc2-c2ccc(Cl)cc2)SC1,13,1.7,10,-23,11,-13
Cc1cc(C)cc(NC(=O)Nc2ccc3c(c2)CCC3)c1,-34,0.7,11,2,-9,-6

# Limited to TRPML1 agonist, D2 PAM and CtBP-E1A inh, for some of the entries so far:
SMILES | TRPML1 agonist | D2 PAM | CtBP-E1A inh
CCOC(=O)/C(=C\c1ccc(OC(F)F)cc1)C1=Nn2c(nnc2-c2ccc(Cl)cc2)SC1 | 1.7 | -13 | 11
COc1ccc(-n2c(SCC#N)nnc2-c2ccc(NS(=O)(=O)c3ccc(C)cc3)cc2)cc1 | 3.5 | 12 | -16
